Compound activity from PubChem BioAssay.
PINK1 modulator – modulators of PINK1 expression | PINK1 immunofluorescence, high-content cytometry, 24 h | Potency, µM (titrated, usually from 76.6 µM), inactives show at the top dose activation (PINK1 increase), actives largely listed as activators | actives 0.2% (n = 410,000) | AID 624263; active = well fitted activation curve with a large enough effect; inconclusive = small, poorly fitted or top-dose-only effect; inactive = flat fitted curve, though single readings scatter; cell line not stated here;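 further: potency means the concentration at half of the fitted maximal effect; % of control where 0% means no effect; nearly all actives have a fitted effect of over 65% in size; a mitochondrial uncoupler was the plate control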
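Cells are seeded, rested 12 hours, then given compound at five concentrations or DMSO for 24 hours. After fixation, blocking and antibody staining, PINK1 amount and mitochondrial localization are scored; CCCP serves as control.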
D2 PAM – potentiates the human D2 dopamine receptor allosterically | P14416 | DiscoveRx D2 beta-arrestin cells, luminescence, 90 min; 100% = 57 uM dopamine signal | potentiation, % (test concentration not listed) | actives 0.23% (n = 360,000) | AID 624464; active = potentiation of 50% or more; inconclusive = 30% to 50%; inactive = 30% or less;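 further: compound concentration not given in the record; tested on top of an EC20 dose of dopamine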
Target sequence (P14416 whole entry, looked up): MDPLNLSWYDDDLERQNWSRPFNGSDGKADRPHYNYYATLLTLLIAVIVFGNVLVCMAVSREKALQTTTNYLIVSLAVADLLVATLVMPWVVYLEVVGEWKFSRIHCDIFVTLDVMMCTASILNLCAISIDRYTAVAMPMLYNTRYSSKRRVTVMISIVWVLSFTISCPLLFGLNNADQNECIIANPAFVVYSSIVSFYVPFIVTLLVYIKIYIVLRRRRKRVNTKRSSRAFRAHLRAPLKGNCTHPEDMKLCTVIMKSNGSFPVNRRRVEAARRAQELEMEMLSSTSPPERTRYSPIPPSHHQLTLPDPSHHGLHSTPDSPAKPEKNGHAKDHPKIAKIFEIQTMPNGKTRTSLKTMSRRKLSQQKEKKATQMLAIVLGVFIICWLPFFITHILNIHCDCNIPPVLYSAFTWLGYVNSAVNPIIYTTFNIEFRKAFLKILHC
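PathHunter D2 cells, attached overnight at 37 deg C, received compound in DMSO plus dopamine at EC20 (50 nM final) for 90 min at 37 deg C. Beta-arrestin recruitment was read as luminescence after 1 h with detection reagent at ambient temperature.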
CtBP-E1A inh – blocks the CtBP interaction with E1A | AlphaScreen GST-E1A/His-CtBP binding, 1536-well; active compounds read low; control for the full effect not named in the record | activity change, % (test concentration not listed) | AID 651724 | actives 0.49% (n = 340,000); in the data active means activity change below about -65%; inconclusive means about -30% to -65%; inactive means above about -30%; further: on the % scale 0 is the no-effect control and ±100 the full control effect
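In 5 uL wells, 23 nL compound meets equimolar GST-E1A and His-CtBP (5X stock 125 nM each) for 2 h, 37 °C. Beads (5X, 50 ug/mL) then 1 h, 37 °C, dark.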
Six1-Eya2 blk – Six1/Eya2 interaction inhibition | actives 0.56% (n = 360,000) | Q15475+O00167 | AID 651725 | AlphaScreen GST-Six1/His-Eya2 binding, biochemical; active compounds read low; control for the full effect not named in the record | activity change, % (test concentration not listed); in the data active = activity change below about -65%; inconclusive = about -30% to -65%; inactive = above about -30%; further: on the % scale 0 is the no-effect control and ±100 the full control effect
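Six1/Eya2 binding was read as AlphaScreen signal after compounds were pinned into GST-Six1 plus His-tagged Eya2 (5X stock 250/500 nM) in pH 8.0 Tris/NaCl/TCEP buffer, beads added, then incubated 1 h, 37 C, dark.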
TRPML1 agonist – agonists of human TRPML1 channel; TRPML1-expressing cells, Ca2+ dye fluorescence, FDSS; host cell line not named in the record; reference of the full effect not given here; Q9GZU1; actives 0.12% (n = 410,000); AID 624414; activation, % (test concentration not listed); in the data active = activation above about 50%; inconclusive = about 30% to 50%; inactive = below about 30%; further: 0% is about no effect; the text of the record puts the active cut at 80%
Target sequence (Q9GZU1 whole entry, looked up): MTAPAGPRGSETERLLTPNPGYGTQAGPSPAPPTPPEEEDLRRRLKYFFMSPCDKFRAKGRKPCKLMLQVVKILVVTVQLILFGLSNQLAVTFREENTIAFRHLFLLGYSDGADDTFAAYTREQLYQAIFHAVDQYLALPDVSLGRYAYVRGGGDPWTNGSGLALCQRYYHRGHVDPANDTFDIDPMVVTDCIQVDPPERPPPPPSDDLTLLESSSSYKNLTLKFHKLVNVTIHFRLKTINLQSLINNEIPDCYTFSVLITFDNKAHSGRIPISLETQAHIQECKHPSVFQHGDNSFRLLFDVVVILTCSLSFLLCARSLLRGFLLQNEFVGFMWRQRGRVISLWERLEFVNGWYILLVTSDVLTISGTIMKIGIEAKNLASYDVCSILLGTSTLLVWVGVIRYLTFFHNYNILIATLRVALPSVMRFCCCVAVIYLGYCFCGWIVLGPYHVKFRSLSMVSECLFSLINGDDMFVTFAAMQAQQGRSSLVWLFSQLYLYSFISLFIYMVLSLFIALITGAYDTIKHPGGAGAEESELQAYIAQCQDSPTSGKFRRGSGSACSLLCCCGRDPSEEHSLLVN
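Tet-induced TRPML1-DL cells, 1,500 per well, cultured overnight, were loaded with a no-wash Ca2+ dye for 45–90 min. Calcium fluorescence was recorded on the FDSS for 110 s after compound addition, before the EC80 agonist (4 uM 54-4) was added.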
D2 ag – human D2 receptor agonism in beta-arrestin assay; P14416; DiscoveRx PathHunter D2 beta-arrestin, luminescence, 90 min; 100% = 57 uM dopamine signal; activation, % (test concentration not listed); actives 0.084% (n = 360,000); in the data active = activation above about 40%; inconclusive = about 15% to 40%; inactive = below about 15%; further: compound concentration not given in the record; the text of the record calls up to 30% inactive
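DiscoveRx PathHunter D2 beta-arrestin cells (2,100/well) attached overnight, then compound-stimulated 90 min at 37 C in HBSS/10 mM HEPES/0.1% Tween-20 buffer; beta-galactosidase complementation read by luminescence after 1 h at ambient temperature. Dopamine 57 uM final (EC100) as control.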
An asterisk follows results filed as active; [ ] = dose if it differs, or a comment.

Preview (2 entries):
Results for CC1CN(C(=O)c2cccc(S(=O)(=O)Nc3ccccc3Cl)c2)CC(C)O1 (stereo not drawn) ?
PINK1 modulator: 1.0%; D2 PAM: 7; CtBP-E1A inh: 0; Six1-Eya2 blk: 0; TRPML1 agonist: 1.0; D2 ag: -3.5

Results for CC1=C(C(N)=O)C(c2cccs2)n2nc(-c3cccc(Cl)c3)nc2N1 (stereo not drawn) ?
PINK1 modulator: -2.2%; D2 PAM: -6; CtBP-E1A inh: -4; Six1-Eya2 blk: 2; TRPML1 agonist: 0.6; D2 ag: -0.3

This part in full, from the first entry:
Results for CC1CN(C(=O)c2cccc(S(=O)(=O)Nc3ccccc3Cl)c2)CC(C)O1 (stereo not drawn) ?
PINK1 modulator: 1.0%; D2 PAM: 7; CtBP-E1A inh: 0; Six1-Eya2 blk: 0; TRPML1 agonist: 1.0; D2 ag: -3.5

Results for CC1=C(C(N)=O)C(c2cccs2)n2nc(-c3cccc(Cl)c3)nc2N1 (stereo not drawn) ?
PINK1 modulator: -2.2%; D2 PAM: -6; CtBP-E1A inh: -4; Six1-Eya2 blk: 2; TRPML1 agonist: 0.6; D2 ag: -0.3

How did CCOc1ccc(NC(=S)Nc2cc(C)[nH]n2)cc1 do in these assays?
PINK1 modulator: 0.9%; D2 PAM: -6; CtBP-E1A inh: 1; Six1-Eya2 blk: 0; TRPML1 agonist: -0.2; D2 ag: -5.3

Results for CCN(C(=O)c1sc(N)c(C#N)c1C)C1CCCCC1 ?
PINK1 modulator: 0.8%; D2 PAM: -14; CtBP-E1A inh: -6; Six1-Eya2 blk: -4; TRPML1 agonist: -0.7; D2 ag: -1.5

Results for Cc1cnc(C(=O)OCC(=O)NCCc2ccccc2)cn1 ?
PINK1 modulator: 3.0%[38.3 µM]; D2 PAM: 5; CtBP-E1A inh: 2; Six1-Eya2 blk: -1; TRPML1 agonist: -0.4; D2 ag: -2.1

What do the screens show for `Cc1cc(C)cc(NC(=O)CSc2nc3ccccc3nc2N2CCCCC2)c1`?
PINK1 modulator: 2.6%; D2 PAM: -2; CtBP-E1A inh: 6; Six1-Eya2 blk: 6; TRPML1 agonist: -0.8; D2 ag: -6.5

What do the screens show for `C#CCN(C[C@H]1[C@H](OC(=O)NC2CC2)[C@H](OC(=O)NC2CC2)C[C@H]2C(=O)N(c3ccccc3)C(=O)[C@@H]12)S(=O)(=O)c1ccc(C)cc1`?
PINK1 modulator: -0.5%; CtBP-E1A inh: 1; Six1-Eya2 blk: -3; D2 ag: -0.5

Results for O=C(CNC(=O)c1ccccc1)NCCO ?
PINK1 modulator: 1.2%; D2 PAM: -4; CtBP-E1A inh: 2; Six1-Eya2 blk: 0; TRPML1 agonist: 1.1; D2 ag: 0.3

What do the screens show for `CN(C(=O)c1cccc(NC(=O)Cc2ccc([N+](=O)[O-])cc2)c1)C1CCC1`?
PINK1 modulator: -0.6%; D2 PAM: -6; CtBP-E1A inh: -1; Six1-Eya2 blk: -3; TRPML1 agonist: -0.1; D2 ag: 4.8

What do the screens show for `Cn1c(=O)[nH]c(=O)c2c1nc(NCc1ccccc1)n2CC(O)c1ccccc1` (stereo not drawn)?
PINK1 modulator: -0.7%; D2 PAM: -8; CtBP-E1A inh: -7; Six1-Eya2 blk: -6; TRPML1 agonist: 1.9; D2 ag: -5.4

What do the screens show for `COC(=O)CNC(=O)COC(=O)C(Cc1ccccc1)NC(=O)c1ccco1` (stereo not drawn)?
PINK1 modulator: 0.2%; D2 PAM: -3; CtBP-E1A inh: 11; Six1-Eya2 blk: 6; TRPML1 agonist: 1.8; D2 ag: 0.9

How did CC1(C)OC(c2ccccc2)=C/C(=C/C=Nc2ccccc2)O1 do in these assays?
PINK1 modulator: -1.5%; D2 PAM: 5; CtBP-E1A inh: 5; Six1-Eya2 blk: -10; TRPML1 agonist: -0.9; D2 ag: -7.2

How did COCC(=O)NNS(=O)(=O)c1ccccc1[N+](=O)[O-] do in these assays?
PINK1 modulator: 2.6%; D2 PAM: 14; CtBP-E1A inh: 12; Six1-Eya2 blk: 12; TRPML1 agonist: 0.3; D2 ag: 0.2

Results for N#CCSc1nnc(COc2ccc3ccccc3c2)o1 ?
PINK1 modulator: 4.9%; D2 PAM: -1; CtBP-E1A inh: -2; Six1-Eya2 blk: 8; TRPML1 agonist: 1.5; D2 ag: 2.5

What do the screens show for `Cc1cc(C)cc(NC(=O)c2ccc(NC3=NC4CS(=O)(=O)CC4S3)cc2)c1` (stereo not drawn)?
PINK1 modulator: -0.4%; D2 PAM: -4; CtBP-E1A inh: -20; Six1-Eya2 blk: 3; TRPML1 agonist: -0.5; D2 ag: -6.2

What do the screens show for `O=C(COC(=O)CCC(=O)c1cccs1)Nc1ccccc1C(F)(F)F`?
PINK1 modulator: 0.0%; D2 PAM: -3; Six1-Eya2 blk: 4; TRPML1 agonist: -0.2; D2 ag: 6.2

What do the screens show for `Cc1ccc(C(=O)NCCN2CCN(C(=O)c3ccc(C)c(C)c3)CC2)cc1C`?
PINK1 modulator: -1.0%; D2 PAM: -26; CtBP-E1A inh: -18; Six1-Eya2 blk: -9; TRPML1 agonist: -1.0; D2 ag: -3.0

Results for CCN(C(=O)COC(=O)CNC(=O)c1ccc(C)cc1)c1c(N)n(Cc2ccccc2)c(=O)[nH]c1=O ?
PINK1 modulator: 3.1%; D2 PAM: 3; CtBP-E1A inh: 2; Six1-Eya2 blk: 0; TRPML1 agonist: -0.2; D2 ag: -0.1

Results for N#Cc1cnc(SCC(=O)c2ccccc2)nc1N ?
PINK1 modulator: 0.3%; D2 PAM: 8; CtBP-E1A inh: -12; Six1-Eya2 blk: -9; TRPML1 agonist: -0.5; D2 ag: -2.7

Results for CC(=O)c1nn(-c2ccccc2)cc1C(=O)c1ccc(Br)cc1 ?
PINK1 modulator: 3.6%; D2 PAM: -4; CtBP-E1A inh: 8; Six1-Eya2 blk: 0; TRPML1 agonist: 0.5; D2 ag: -19

How did CN1/C(=C/C(=S)NC(=O)C2CCC2)C(C)(C)c2ccccc21 do in these assays?
PINK1 modulator: 1.1%; D2 PAM: -18; CtBP-E1A inh: inconclusive; Six1-Eya2 blk: inconclusive; TRPML1 agonist: -0.4; D2 ag: -9.7

Results for COc1cccc(-c2nc(-c3ccccc3)[nH]c(=O)c2C#N)c1 ?
PINK1 modulator: 0.3%; D2 PAM: -2; CtBP-E1A inh: 4; Six1-Eya2 blk: -7; TRPML1 agonist: 1.5; D2 ag: -3.2

What do the screens show for `COc1ccc(Cl)c(-c2cc(C(=O)Nc3ccc(F)cc3)[nH]n2)c1`?
PINK1 modulator: 4.6%; D2 PAM: -9; CtBP-E1A inh: -5; Six1-Eya2 blk: -11; TRPML1 agonist: 0.6; D2 ag: -1.6

What do the screens show for `O=C(COc1ccc(S(=O)(=O)N2CCOCC2)cc1)NCc1ccccn1`?
PINK1 modulator: 2.4%; D2 PAM: -10; CtBP-E1A inh: -1; Six1-Eya2 blk: 4; TRPML1 agonist: 0.5; D2 ag: -3.4

Results for O=C(Nc1ccc(F)c(Cl)c1)Nc1nnc([C@@H]2O[C@H](CO)[C@@H](O)[C@H]2O)s1 ?
PINK1 modulator: 0.0%; D2 PAM: 0; CtBP-E1A inh: 5; Six1-Eya2 blk: -1; TRPML1 agonist: 0.2; D2 ag: 3.1

Results for COC(=O)C1=C(C)N(c2ccc(Br)cc2)C(=O)/C1=C\c1ccco1 ?
PINK1 modulator: 4.8%; D2 PAM: -31; CtBP-E1A inh: 2; Six1-Eya2 blk: 0; TRPML1 agonist: -0.6; D2 ag: -5.5

Results for COc1cccc2sc(Nc3nc4ccc(NC(C)=O)cc4s3)nc12 ?
PINK1 modulator: 11%; D2 PAM: -7; CtBP-E1A inh: -7; Six1-Eya2 blk: 0; TRPML1 agonist: -0.7; D2 ag: 1.5

What do the screens show for `COc1ccc(-c2cn[nH]c2N)c(OC)c1`?
PINK1 modulator: -5.6%[38.3 µM]; D2 PAM: 1; CtBP-E1A inh: -1; Six1-Eya2 blk: -1; TRPML1 agonist: -0.6; D2 ag: -1.8

How did CCN(CC)C(=O)Cn1c(=O)n(-c2ccccc2)c(=O)c2sccc21 do in these assays?
PINK1 modulator: -1.3%; D2 PAM: -1; Six1-Eya2 blk: -2; TRPML1 agonist: 0.5; D2 ag: -11

How did NC(=O)c1cccc(-c2csc(C(O)c3ccccc3)n2)c1 (stereo not drawn) do in these assays?
PINK1 modulator: 3.9%; D2 PAM: -4; CtBP-E1A inh: 2; Six1-Eya2 blk: 12; TRPML1 agonist: -0.5; D2 ag: -5.7

What do the screens show for `O=C(Nc1ccc(Cl)cn1)c1ccccc1F`?
PINK1 modulator: 2.7%; D2 PAM: -8; CtBP-E1A inh: -17; Six1-Eya2 blk: 5; TRPML1 agonist: 0.7; D2 ag: -4.5

How did O=C(O)CCCCn1c(SCc2ccccc2Cl)nc2ccsc2c1=O do in these assays?
PINK1 modulator: 9.2%; D2 PAM: -10; CtBP-E1A inh: 3; Six1-Eya2 blk: -9; TRPML1 agonist: 1.2; D2 ag: -0.6

How did CCC(=O)N1CCc2cc(S(=O)(=O)N3CCN(c4cc(Cl)ccc4C)CC3)ccc21 do in these assays?
PINK1 modulator: 1.1%; D2 PAM: -6; CtBP-E1A inh: 4; Six1-Eya2 blk: 2; TRPML1 agonist: -0.4; D2 ag: 1.1

What do the screens show for `Cn1c(SCC(=O)Nc2ccc(N3CCOCC3)cc2)nnc1-c1ccco1`?
PINK1 modulator: 2.2%; D2 PAM: 1; CtBP-E1A inh: -8; Six1-Eya2 blk: -3; TRPML1 agonist: 0.2; D2 ag: 3.8

What do the screens show for `COC(=O)c1sc(NC(=O)/C=C/c2ccc(C)cc2)nc1C`?
PINK1 modulator: 9.3%; D2 PAM: -19; CtBP-E1A inh: 4; Six1-Eya2 blk: 3; TRPML1 agonist: -0.1; D2 ag: -0.3

How did COc1ccc(C(CCNCc2ccc(F)cc2)c2ccc(F)cc2)cc1 (stereo not drawn) do in these assays?
PINK1 modulator: -2.1%; D2 PAM: -34; CtBP-E1A inh: 24; Six1-Eya2 blk: 19; TRPML1 agonist: 3.3; D2 ag: -2.8

Results for O=C(c1ccc(Br)cc1)N(Cc1nc2ccccc2c(=O)[nH]1)C1CCCC1 ?
PINK1 modulator: 1.6%; D2 PAM: -1; CtBP-E1A inh: -27; Six1-Eya2 blk: -18; TRPML1 agonist: 1.6; D2 ag: -1.1

Results for c1ccc(C2NCCc3ccccc32)cc1 (stereo not drawn) ?
PINK1 modulator: -0.1%; D2 PAM: -6; CtBP-E1A inh: -11; Six1-Eya2 blk: 21; TRPML1 agonist: 0.2; D2 ag: -15

Two neighbouring entries out of the list so far, quoted:
How did COc1ccc(C(CCNCc2ccc(F)cc2)c2ccc(F)cc2)cc1 (stereo not drawn) do in these assays?
PINK1 modulator: -2.1%; D2 PAM: -34; CtBP-E1A inh: 24; Six1-Eya2 blk: 19; TRPML1 agonist: 3.3; D2 ag: -2.8

Results for O=C(c1ccc(Br)cc1)N(Cc1nc2ccccc2c(=O)[nH]1)C1CCCC1 ?
PINK1 modulator: 1.6%; D2 PAM: -1; CtBP-E1A inh: -27; Six1-Eya2 blk: -18; TRPML1 agonist: 1.6; D2 ag: -1.1
